From PubChem BioAssay
MenB inh: inhibitors of Mycobacterium tuberculosis MenB enzyme. P9WNP5. MenB enzyme assay, absorbance read-out; some hits fall short of the stated cut. inhibition, %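 (about 12 µg/mL by stock and volumes)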. 0.43% of 100,000 active. AID 540299;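 active = mean of two replicates above 30%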;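 note: 0% = no compound and 100% = wells with inactive enzyme; the first replicate is given; strong numbers were not always called active; inactives centre near -10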
Target sequence (P9WNP5 whole entry, looked up): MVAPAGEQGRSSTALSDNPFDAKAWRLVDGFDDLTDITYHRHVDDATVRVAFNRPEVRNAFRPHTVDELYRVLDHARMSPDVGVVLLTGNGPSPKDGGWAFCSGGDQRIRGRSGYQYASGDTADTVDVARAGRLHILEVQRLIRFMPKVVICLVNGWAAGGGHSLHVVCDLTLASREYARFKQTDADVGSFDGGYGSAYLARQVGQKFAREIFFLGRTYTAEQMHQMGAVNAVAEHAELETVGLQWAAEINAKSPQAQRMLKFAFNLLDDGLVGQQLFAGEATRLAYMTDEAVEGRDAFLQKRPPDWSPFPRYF
MbtI inh: inhibitors of Mycobacterium tuberculosis siderophore enzyme MbtI. P9WFX0. purified MbtI enzyme, fluorescence intensity read-out. inhibition, %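 (about 17 µg/mL by stock and volumes)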. 0.89% of 100,000 active. AID 493033;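 active = above 50% in both replicates, above 80% if mildly self-fluorescent; inactive = the rest, strongly fluorescent compounds included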;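 note: 0% = mean of negative and 100% = mean of positive controls; one replicate is shown; some compounds called inactive have numbers as strong as hits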
Target sequence (P9WFX0 whole entry, looked up): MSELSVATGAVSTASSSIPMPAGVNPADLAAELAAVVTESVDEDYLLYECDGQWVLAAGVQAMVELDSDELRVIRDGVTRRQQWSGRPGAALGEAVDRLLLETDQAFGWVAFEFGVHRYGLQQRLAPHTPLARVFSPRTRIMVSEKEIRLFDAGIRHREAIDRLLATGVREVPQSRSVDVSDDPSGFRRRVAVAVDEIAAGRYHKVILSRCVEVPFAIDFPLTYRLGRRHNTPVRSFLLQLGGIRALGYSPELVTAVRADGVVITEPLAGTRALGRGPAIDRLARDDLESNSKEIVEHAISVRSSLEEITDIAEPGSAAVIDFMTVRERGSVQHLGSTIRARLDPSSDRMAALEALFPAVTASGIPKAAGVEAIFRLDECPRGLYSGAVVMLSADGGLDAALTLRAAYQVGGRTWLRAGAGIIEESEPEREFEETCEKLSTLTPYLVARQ
Polio RdRp inh: poliovirus RNA polymerase inhibition. % elongation, % (compound at 16.7 µg/mL). AID 588519. poliovirus polymerase elongation, fluorescence polarization; active compounds read low. 0.66% of 150,000 active. P03300; in the data active = % elongation below about 90%; note: some results filed as inactive read as strong as hits
Polio RdRp inh intensity: also measured in Polio RdRp inh; calls as there; % elongation; measured here: total intensity read-out; formula for this scale not given here;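 total fluorescence in place of polarization; lower means less elongation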
Numbers without * were called inactive; i = inactive; / = not tested or not shown. Compounds were not picked by outcome; any-hit rate near 2%.

SMILES	MenB inh	MbtI inh	Polio RdRp inh	Polio RdRp inh intensity
Cn1c2c(c(=O)[nH]c1=O)C1(O)C(=O)c3ccccc3C1(O)N2 (stereo unspecified)	-5	-11	100	102
CCNC(=O)CSc1nnc(-c2cccc(S(=O)(=O)N(CC)CC)c2)n1-c1ccccc1	-31	-10	100	104
CCOC(=O)c1c(-c2ccccc2)c2oc3ccccc3c2[nH]c1=O	0	93	102	98
CN(C)C(CNC(=O)c1ccccn1)c1ccco1 (stereo unspecified)	-43	39	101	105
COC(=O)c1cccc(-c2ccc(C=C3C(=O)OC(c4ccccc4)OC3=O)o2)c1 (stereo unspecified)	4	3	100	100
CC1=CC(C)(C)Nc2ccc(OC(=O)Cc3ccccc3)cc21	/	-40	105	111
Cc1cc(C(C)(C)C)oc1C(=O)O	28	9	101	102
O=C1OCC(CO)(CO)N=C1NNc1ccccc1	-10	14	100	101
CC(=O)NCCc1ccc(S(=O)(=O)N(C)C)cc1	-10	16	100	104
O=C(COC(=O)c1cccs1)NCc1ccccc1	/	-8	103	102
O=C1NC(C(=O)O)Cc2ccccc21 (stereo unspecified)	-4	-5	106	107
CCOC(=O)C1CCCN(C(=O)COc2ccc(N(C)S(=O)(=O)c3ccc(F)cc3)cc2)C1 (stereo unspecified)	-5	-11	100	101
CC1CN(C2=NCCN2S(=O)(=O)c2cc(C(F)(F)F)cc(C(F)(F)F)c2)CC(C)O1 (stereo unspecified)	-3	-9	105	111
CN(C)S(=O)(=O)c1ccc(C(=O)NCc2n[nH]c(=O)c3ccccc23)cc1	-29	6	107	97
Cc1cc(C(=O)COC(=O)c2cc(S(C)(=O)=O)ccc2Cl)c(C)n1C	-7	-2	103	105
CCN=C1S/C(=C/c2sccc2C)C(=O)N1CC	-9	/	106	107
CCN(CC(=O)Nc1ccccc1)c1ccccc1	-19	-2	100	100
CN[C@H](CC(=O)O)C(=O)O	-14	-10	101	104
O=C(NCC1COc2ccccc2O1)c1ccc(Cl)cc1 (stereo unspecified)	-25	-3	101	105
CC12CCC3(C)OCC(COC(=O)NS(=O)(=O)c4ccccc4)(CO1)N23 (stereo unspecified)	-31	-3	104	102
CCOc1ccc(NC(=O)c2ccc(SC)cc2OC)cc1	-56	79	101	101
O=C1NC(=O)C(=Cc2cn(Cc3ccccc3)c3ccccc23)C(=O)N1	-20	-11	105	111
Cc1cccc(C)c1OCCCn1ccnc1	-20	0	100	101
Cc1nnc(-c2ccc(-c3ccccc3)cc2)o1	/	5	100	97
O=C1S/C(=C\c2ccc(N3CCOCC3)o2)C(=O)N1c1ccccc1	-47	31	69	198
SMILES	MenB inh	MbtI inh	Polio RdRp inh	Polio RdRp inh intensity
Cc1ccc2nc(NC(=O)C3CCCN(S(=O)(=O)c4ccc5c(c4)oc(=O)n5C)C3)sc2c1 (stereo unspecified)	5	5	103	99
O=C(NN1CC(=O)N(CCc2ccccc2)C1=O)c1cccnc1	4	-2	104	102
CC(=O)N(C(C)=O)N1C(=O)c2cccc3c(N4CCOCC4)ccc(c23)C1=O	-66	-6	67	150
COC(=O)C1Cc2ccccc2CN1Cn1c(SC)nc2ccccc21 (stereo unspecified)	-37	0	99	96
CCOc1ccc(CNC(=O)C2CCCN(c3nnc(-n4cccc4)s3)C2)cc1 (stereo unspecified)	-7	-6	102	102
CCCCn1c(=O)[nH]c(=O)c2c1nc(CN1CCN(S(=O)(=O)c3ccccc3)CC1)n2CC	9	13	102	99
COc1ccccc1N1CCN(S(=O)(=O)c2ccc(S(=O)(=O)NC3CCCC3)cc2)CC1	1	-14	102	99
O=C(O)CCn1cc(C(=O)O)c(-c2ccccc2)n1	-6	2	98	99
O=C(NCc1ccco1)c1ccc(S(=O)(=O)N2CCCc3ccccc32)cc1	-6	0	99	101
Cc1[nH]c(-c2ccc(F)cc2)cc1C(=O)NC1CCCC1	-13	-61	102	104
COc1ccc2c(Cl)c(-c3nnco3)sc2c1	-9	15	100	93
O=C(Sc1ccc(Cl)cc1)c1cnc2n(c1=O)CCS2	-13	22	101	99
O=C(NCC(c1cccnc1)N1CCOCC1)C1CCCCC1 (stereo unspecified)	-14	-9	104	106
CCn1c(=N)n(CC(=O)c2ccc(-c3ccccc3)cc2)c2ccccc21	-28	-12	104	99
Cc1ccnc(NC(=O)c2sc3cc(Cl)ccc3c2Cl)c1	/	17	102	102
O=C(Cn1nc(-c2ccco2)ccc1=O)Nc1ccccc1Cl	1	40	101	97
O=S(=O)(c1ccc(Cl)c2ccccc12)N1CCCC1	-12	-11	103	102
CC(C)CN(C(=O)CSc1nc2ccccc2[nH]1)c1c(N)n(CC(C)C)c(=O)[nH]c1=O	-12	-6	101	103
COCc1c(Br)c(C)nc2sc3c(=O)[nH]nnc3c12	18	64	101	102
CCN1/C(=C2\C(=O)N(c3ccccc3)N=C2C)C=Cc2ccccc21	-72	1	103	103
COc1cc2cc(OCc3c(F)cccc3Cl)nc(C)c2cc1OC	3	85	102	98
O=C(CCN1C(=O)C2C3C=CC(C3)C2C1=O)Nc1cccnc1 (stereo unspecified)	-11	-5	104	102
O=c1[nH]c(=S)sc2ccccc12	-4	52	99	103
Cc1ccc(NC(=O)CC2COc3ccccc3O2)cc1C (stereo unspecified)	-11	/	109	115
CCOC(=O)c1cc2ccc(OC(=O)c3ccco3)cc2oc1=O	-103	i	101	101

Part of the list above, set out differently.
| SMILES | MenB inh | MbtI inh | Polio RdRp inh | Polio RdRp inh intensity |
| --- | --- | --- | --- | --- |
| O=c1[nH]c(=S)sc2ccccc12 | -4 | 52 | 99 | 103 |
| Cc1ccc(NC(=O)CC2COc3ccccc3O2)cc1C (stereo unspecified) | -11 | / | 109 | 115 |
| CCOC(=O)c1cc2ccc(OC(=O)c3ccco3)cc2oc1=O | -103 | i | 101 | 101 |

The results go on:
SMILES	MenB inh	MbtI inh	Polio RdRp inh	Polio RdRp inh intensity
CCC(CC)NCc1oc2ccc(Cl)cc2c1-c1ccc(OC)cc1	-15	-7	102	104
CC(C)(C)c1cn2ccc3ccccc3c2n1	26	-256	100	102
O=C(NCc1noc2ccccc12)N1CCc2ccccc21	-22	-4	101	103
CC(=O)Nc1ccc(N2CCN(C(C)=O)CC2)cc1	-10	3	102	101
Cc1cnc(NC(=O)C2CCCC2)s1	-7	-12	/	/
COc1ccc(N2CCN(CCCNC(=O)/C=C3\Sc4ccccc4NC3=O)CC2)cc1	-12	-4	98	100
CCOC(=O)C1=C(N)Oc2c(c(=O)[nH]c3ccccc23)C12C(=O)Nc1ccccc12 (stereo unspecified)	-37	-8	104	103
COCCCn1nnnc1SCC(=O)Nc1ccccc1	-4	5	99	101
C=CCSc1nccc(-c2sc3ccc(Cl)cc3c2C)n1	-14	-8	103	102
COc1ccc(NC(=O)c2ccccc2C(=O)N2CCCCC2)cc1	-46	5	100	100
CCOC(=O)c1cnc(-c2ccccc2)[nH]c1=O	7	-3	102	104
O=C(O)C(Cc1ccccc1)NC(=O)C(c1ccccc1)c1ccccc1 (stereo unspecified)	/	-7	100	97
O/N=C/c1ccccc1C(F)(F)F	6	-5	102	104
CNC(=O)CN1CCCC(c2nc3ccccc3[nH]2)C1 (stereo unspecified)	-29	-4	104	108
O=c1ncn(Cc2cccs2)cc1-c1ccccc1	-5	-10	108	116
Cc1ccc(-c2nnc(Nc3ccc(O)cc3)c3ccccc23)cc1S(=O)(=O)N(C)C	-4	-9	99	98
COC(=O)c1ccc(-c2ccco2)n1CC(=O)N1CCC(C(N)=O)CC1	-5	-8	100	99
CC1(C)CC2CC(C)(CN2c2nc(N)c(C#N)c(CC#N)c2C#N)C1 (stereo unspecified)	-8	48	112	120
Cc1cccc2c1cnn2C(=O)Nc1cc(F)ccc1F	2	-3	103	102
COC(=O)c1sc(NC(=O)Cn2cnc3sccc3c2=O)c(C(=O)OC)c1C	-17	50	106	115
OC(CNCc1ccccc1)C12CC3CC(CC(C3)C1)C2 (stereo unspecified)	-22	-13	103	98
Cc1nc2c(C(=O)N(C)Cc3ccco3)c[nH]n2c(=O)c1Cc1ccccc1F	6	i	101	101
CCOc1ccccc1CNC(=O)Cn1ncc2c([nH]c3ccccc32)c1=O	9	-8	/	/
CC(NCc1ccccc1)C(=O)Nc1ccccc1 (stereo unspecified)	5	8	101	107
COc1ccc(-c2c(C)c3cc(Cl)c(O)cc3oc2=O)cc1OC	-36	/	110	108

An excerpt from above, showing only Polio RdRp inh intensity, Polio RdRp inh and MenB inh.
Molecule,Polio RdRp inh intensity,Polio RdRp inh,MenB inh
COCCCn1nnnc1SCC(=O)Nc1ccccc1,101,99,-4
C=CCSc1nccc(-c2sc3ccc(Cl)cc3c2C)n1,102,103,-14
COc1ccc(NC(=O)c2ccccc2C(=O)N2CCCCC2)cc1,100,100,-46
CCOC(=O)c1cnc(-c2ccccc2)[nH]c1=O,104,102,7
O=C(O)C(Cc1ccccc1)NC(=O)C(c1ccccc1)c1ccccc1 (stereo unspecified),97,100,/
O/N=C/c1ccccc1C(F)(F)F,104,102,6

(more compounds)
SMILES	MenB inh	MbtI inh	Polio RdRp inh	Polio RdRp inh intensity
CCc1ccc(Nc2nc(-c3cc4ccccc4oc3=O)cs2)cc1	7	0	105	110
O=C(O)CCCN1C(=O)C(O)=C(C(=O)/C=C/c2ccccc2)C1c1ccccc1 (stereo unspecified)	-371	21	98	100
Cc1ccc(NC(=O)CN2Cc3ccccc3C2=O)cc1	-7	-15	99	101
COc1cc(NC(=O)Cc2ccc(F)cc2)cc(S(=O)(=O)c2ccc(Cl)cc2)c1	-3	/	106	113
CCc1ccc(C2C3=C(Nc4c2c(=O)n(C)c(=O)n4C)c2ccccc2C3=O)cc1 (stereo unspecified)	-5	-1	100	101
O=C1OC(c2ccco2)=N/C1=C1/C=C(c2cccs2)Oc2ccccc21	-20	-10	101	102
Cc1nnc(SCC(=O)N(C)CC(=O)Nc2ccc(F)cc2)n1Cc1ccccc1	-22	6	105	106
CC1CCN(S(=O)(=O)c2ccc3[nH]cc(C(=O)NCc4ccccc4Cl)c(=O)c3c2)CC1	-10	-6	102	108
C=CCSC1=C(C#N)C(c2ccccc2OCC)C(C#N)C(=O)N1 (stereo unspecified)	-24	/	99	106
CN(C)C(=O)COC(=O)c1cccc(S(=O)(=O)N2CCN(c3ccccc3)CC2)c1	-17	-7	101	105
CC(=O)N1CCN(C(=O)c2c(Cl)nc3sccn23)CC1	/	-3	102	103
CC(C)OC(=O)c1cccc(NC(=O)c2ccc(Br)cc2)c1	-9	3	105	106
OC1(c2ccccc2)CN(c2ccccc2)C2=[N+]1CCCC2 (stereo unspecified)	15	-20	100	102
CC(C)(C)C(=O)/C(C#N)=C/Nc1cccc2nsnc12	-26	-20	99	112
CCN(C(=O)c1cc2c(=O)[nH]c3ccc(C)cc3c2s1)c1ccccc1	-24	12	104	106
CCC(C)NC(=O)C1CCN(S(=O)(=O)c2ccc3nc4c(c(C(=O)O)c3c2)CCCC4)CC1 (stereo unspecified)	2	-5	102	108
Cn1c(=O)cc(OCCCC(=O)NCC2(c3ccccc3)CCCC2)c2ccccc21	-26	1	104	103
CCOc1ccc(NC(=O)c2ccc(-n3cnnc3)cc2)cc1	-12	17	103	103
NCCCN1Cc2ccccc2C1	-6	1	101	101
Cn1c2ccccc2c2cnn(CC(=O)NC3CCCC3)c(=O)c21	-10	22	101	104
O=S(=O)(c1ccccc1)N1CCN(C(=S)NCc2ccccc2)CC1	2	14	101	98
Cc1[nH]c2ccccc2c1CC1C(=O)N(C)C(=O)N(C)C1=O	0	/	98	94
COCCN1Cc2cccc(C(=O)Nc3ccc(C(C)C)cc3)c2C1=O	-2	-6	99	102
O=C(OCC(=O)N1CCC(Cc2ccccc2)CC1)c1n[nH]c2ccccc12	/	13	102	104
CCC1Oc2nc(SC)nnc2-c2ccccc2N1C(=O)c1ccccc1 (stereo unspecified)	-103	-3	100	101

Filtered by structure: those above containing a cyano group (3)
SMILES	MenB inh	MbtI inh	Polio RdRp inh	Polio RdRp inh intensity
CC1(C)CC2CC(C)(CN2c2nc(N)c(C#N)c(CC#N)c2C#N)C1 (stereo unspecified)	-8	48	112	120
C=CCSC1=C(C#N)C(c2ccccc2OCC)C(C#N)C(=O)N1 (stereo unspecified)	-24	/	99	106
CC(C)(C)C(=O)/C(C#N)=C/Nc1cccc2nsnc12	-26	-20	99	112

The listing continues.
SMILES	MenB inh	MbtI inh	Polio RdRp inh	Polio RdRp inh intensity
O=C(c1ccco1)N1CCN(C(=O)C2CCCc3c2[nH]c2ccc(Cl)cc32)CC1 (stereo unspecified)	-27	-4	103	105
O=C(N/C(=C\c1ccc(O)cc1)C(=O)N1CCCCC1)c1ccccc1	7	15	100	102
Cc1oc2ccc(OCc3ccc(Cl)cc3)cc2c1C(=O)O	-5	7	101	103
O=C(c1ccc(OCCN2CCCCC2)cc1)c1c(-c2ccc(O)cc2)sc2cc(O)ccc12	-4	3	103	98
CC(CNC(=O)CCc1nnc2ccc(NCCCN3CCCC3=O)nn12)c1ccccc1 (stereo unspecified)	-5	25	100	107
Nc1nnn2c(=O)c3cccc4cccc(c43)c12	-1	-10	97	106
Cc1[nH]c(=O)[nH]c(=O)c1S(=O)(=O)NCCOC12CC3CC(CC(C3)C1)C2	-10	/	105	98
Cc1ccc(Cl)cc1N1CCN(CCCNC(=O)c2cc3c(C)nc4ccccc4c3o2)CC1	0	15	100	100
CCN1C(=O)C2C(c3ccccc3C)NC(Cc3ccc(O)cc3)(C(=O)OC)C2C1=O (stereo unspecified)	-48	-7	102	101
CN(Cc1nc2ccccc2c(=O)[nH]1)C(=O)CCC(=O)N1CCOCC1	-20	7	103	105
CC(=O)N1CC(NC(Cc2cnc[nH]2)C(=O)O)C(c2ccc(N(C)C)cc2)=N1 (stereo unspecified)	-54	/	101	99
